# Screening data deposited in PubChem by National Center for Advancing Translational Sciences (NCATS).
# HPGD inh = qHTS Assay for Inhibitors of HPGD (15-Hydroxyprostaglandin Dehydrogenase); 15-hydroxyprostaglandin dehydrogenase [NAD(+)] (Homo sapiens), P15428; purified HPGD, NADH fluorescence kinetic, PGE2 substrate; Potency, µM, inactives show top-dose activity change, negative = inhibition, usual class: inhibitors; 4.3% of 150,000 active; active = well fitted inhibition curve with a large enough effect (not every such curve was filed as active); inconclusive = small, poorly fitted or top-dose-only effect, or another doubt; inactive = no such curve, though single readings can be large or run the other way;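 also: top concentration of the series not given in the record; plate controls included wells without enzyme; inactives centre near -10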
# Target sequence (P15428 whole entry, looked up): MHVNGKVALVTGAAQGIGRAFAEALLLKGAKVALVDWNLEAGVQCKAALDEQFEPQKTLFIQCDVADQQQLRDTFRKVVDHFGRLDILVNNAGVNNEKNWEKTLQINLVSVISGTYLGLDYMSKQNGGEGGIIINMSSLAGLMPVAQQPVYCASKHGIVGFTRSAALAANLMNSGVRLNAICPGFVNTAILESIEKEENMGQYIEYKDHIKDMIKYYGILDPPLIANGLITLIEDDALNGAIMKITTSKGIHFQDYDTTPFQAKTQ
#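 NADH formation kinetics: reaction with 30 uM PGE2 and 1 mM NAD+ (final), 20 nM enzyme, Tris-HCl pH 8 with Tween 20, after 15 min compound preincubation at room temperature. Fluorescence change, last versus first of five reads.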
# * hit, by the source's call; ? = inconclusive; & = joins results of further samples. % is scaled to controls: 0 for no effect and ±100 for the full control effect; potency is read from the fitted curve at half-maximal effect.
molecule,HPGD inh
Cc1cccc(CC2CC(=O)N(c3ncccn3)C2=O)c1 (stereo not given),-1%
O=C(N/N=C/c1ccc[nH]1)c1ccc(Cl)cc1,-16%
CCOc1ccc(C2CC(c3ccc(OC)cc3)n3ncnc3N2)cc1 (stereo not given),-6%
O=C1CSC(c2cn(-c3ccccc3)nc2-c2cc3ccccc3o2)N1Cc1ccccc1 (stereo not given),?
COc1cccc(/C(O)=C2/C(=O)C(=O)N(CCN3CCOCC3)C2c2cccnc2)c1 (stereo not given),-26%
COCC(=O)N1CCCc2ccccc21,-6%
Cc1[nH]n(-c2ncc(-c3ccc(Cl)cc3)s2)c(=O)c1C(c1ccc(Cl)cc1)C(C#N)C#N (stereo not given),10µM*
CSc1nc(C)nc2c1c(=O)n(C)c(=O)n2C,-6%
O=C(N1CCOCC1)N1CCN(S(=O)(=O)N2CCOCC2)CC1,2%
COc1cccc(/C=C/C(=C2/C(=O)N(c3ccccc3)N=C2C)c2ccccc2)c1OC,-18%
CC1CN(S(=O)(=O)c2cccc(C(=O)OCc3cc(=O)oc4cc(O)ccc34)c2)CC(C)O1 (stereo not given),?
CCOC(=O)c1[nH]cnc1C(=O)O,3%
Cc1cc(C(C)(C)C)cc(C)c1CC1=NCCN1,-4%&-3%&-1%&1%
COCCNC(=O)c1cn(C)c(=O)c2cc(OC)c(OC)cc12,-17%
CCOc1ccc(NC(=O)CN2CCN(S(=O)(=O)c3ccc(Cl)cc3)CC2)cc1,-12%
Cc1nc(N=Nc2cc(S(=O)(=O)O)c3cc([N+](=O)[O-])cc(S(=O)(=O)O)c3c2)c(COP(=O)(O)O)c(C=O)c1O,?
O=C1c2cccc3cccc(c23)C(=O)N1CCN1CCN(CC(O)COc2ccccc2)CC1 (stereo not given),-8%
O=C1N/C(=N/NC(=O)c2cccc3ccccc23)S/C1=C\c1ccccc1OCc1ccccc1,-18%
CCN1C(=O)C(NC(C)=O)c2cc(OC)ccc21 (stereo not given),-1%
Cc1cc2ccc(=O)oc2cc1OC[C@@H](O)C(C)(C)O,?
CC(C)n1c2ccccc2c2nc3ccccc3nc21,-19%
Cn1c(C(=O)N2CCN(c3nc4ccccc4s3)CC2)cc2sccc21,-10%
CC(=O)OCC(=O)[C@@]1(O)CCC2C3CCC4=CC(=O)C=CC4(C)C3C(O)C[C@]21C (stereo not given in full),-6%
Cc1c(C(=O)OC(C)C)nnn1-c1nonc1N,-9%
c1ccc(N2CCN(c3nc4cc5c(cc4s3)OCCO5)CC2)cc1,-4%

# Brought forward from above: three compounds, followed by the next part.
molecule,HPGD inh
CC(=O)OCC(=O)[C@@]1(O)CCC2C3CCC4=CC(=O)C=CC4(C)C3C(O)C[C@]21C (stereo not given in full),-6%
Cc1c(C(=O)OC(C)C)nnn1-c1nonc1N,-9%
c1ccc(N2CCN(c3nc4cc5c(cc4s3)OCCO5)CC2)cc1,-4%
O=C(NC1CC1)c1cc(Cl)ccc1[N+](=O)[O-],-5%
O=C(CSc1nc2cc3c(cc2c(=O)n1CCC1=CCCCC1)OCO3)NCc1ccco1,-8%
COc1cccc(-c2nc(-c3ccccc3)[nH]c(=O)c2C#N)c1,16µM*
O=[N+]([O-])c1cc2c(c(CSc3nnnn3-c3ccc(O)cc3)c1)OCOC2,-23%
CC1C/C(=N/NC(=O)c2cccs2)CC(C)(C)C1 (stereo not given),-14%
CC(C)(C)C(=O)CC1(O)C(=O)N(Cc2ccc(Cl)cc2)c2ccccc21 (stereo not given),-7%
Cc1ccc(-c2csc3ncnc(-n4nc(C)cc4N)c23)cc1,-13%
CCOC(=O)C1CCN(C(=O)c2ccccc2NC(C)=O)CC1,-1%
COC(=O)c1c(C)[nH]c(C(C)=O)c1C,-19%
COc1cccc(OC)c1C(=O)Oc1ccc2c(c1)O/C(=C\c1ccncc1)C2=O,-14%
CCc1[nH]nc2c1C(c1ccc(Br)s1)C(C#N)=C(N)O2 (stereo not given),-16%
COc1ccccc1NC(=O)c1ccc(S(=O)(=O)N2CCCC2)cc1,-10%
NC(=O)N/N=C/c1ccccc1OCC(=O)NCc1ccccc1,-2%
O=C(Oc1ccc(Cl)cc1)N1CCCCC1,-13%
COc1cccc(/C=C2/SC(=S)N(CC(=O)Nc3nnc(C)s3)C2=O)c1,-16%
COc1cccc(C(=O)OCCN(C)C(C)(C)C)c1,-5%
CCON=C1C(C)(C)C(C)(C)C(C)(C)C1(C)C,-8%
COc1ccc(C2C(C(C)=O)=C(O)C(=O)N2c2nccs2)cc1 (stereo not given),-9%
CCOC(=O)c1cc(C(=O)OCC)c2ccccn2c1=O,?
Nc1cc(=O)[nH]c(SCC(=O)N2CCc3ccccc3C2)n1,-7%
Clc1ccc(-c2nnc(-c3ccccc3)nc2N2CCSCC2)cc1,-17%
NCCC(=O)NCCc1cnc[nH]1,-9%&-2%
Cc1ccc(NC(=O)c2cc(-c3cccc(O)c3)on2)cc1C,-12%
COC(=O)Cc1cc(=O)n2[nH]cnc2n1,-8%
CC1CCN(C(=O)C(Cc2ccccc2)NS(=O)(=O)c2ccc3c(c2)oc(=O)n3C)CC1 (stereo not given),-3%

# Among those listed so far, 3 have two or more sulfur atoms:
molecule,HPGD inh
Cc1nc(N=Nc2cc(S(=O)(=O)O)c3cc([N+](=O)[O-])cc(S(=O)(=O)O)c3c2)c(COP(=O)(O)O)c(C=O)c1O,?
Cn1c(C(=O)N2CCN(c3nc4ccccc4s3)CC2)cc2sccc21,-10%
COc1cccc(/C=C2/SC(=S)N(CC(=O)Nc3nnc(C)s3)C2=O)c1,-16%

# (more compounds)
molecule,HPGD inh
CCc1ccccc1N(C)S(=O)(=O)c1ccc2[nH]cc(C(=O)N3CCc4ccccc43)c(=O)c2c1,-24%
COc1cccc(Cn2c(=O)c(-c3ccc(Cl)cc3)nc3cnc(N(C)C)nc32)c1,-20%
COC(=O)Cn1c(CCS(=O)(=O)c2ccc(C)cc2)nc2ccccc21,-15%
CSc1ccc(S(=O)(=O)NC2CCCCCC2)cc1,-4%
CCCn1c(-c2ccc(F)cc2)nc2c(N3CCN(CCn4ccnc4)CC3)nc(C)nc21,-8%
O=C(Cn1cnc2c(nnn2-c2ccccc2)c1=O)NCCc1ccccc1,-27%
CC1=NN(c2nc(-c3ccc(C)cc3)cs2)C(=O)C1N=Nc1cccc(C)c1 (stereo not given),-10%
COCc1c(C(=O)OC)nnn1-c1ccccc1,-8%
COc1ccc(OC)c(C2=NNC(=NCc3ccc4c(c3)OCO4)SC2)c1,?
Cc1ccc(-n2ncc3c(NCc4ccc5c(c4)OCO5)ncnc32)c(C)c1,-14%
CCOC(=O)C(=CNc1cccc(C)c1C)C(=O)OCC,-7%
CC#CCN1c2ccccc2[C@]23C[C@@H](C(=O)OC)N(S(=O)(=O)c4ccc5c(c4)OCCN5C)C2=NC(C(=O)OC)=C(C(=O)OC)[C@H]13,-1%
CCN1CCN(S(=O)(=O)c2ccc3ccccc3c2)CC1,-4%
COc1ccc(N(C(=O)CCl)C(C(=O)NCCc2ccccc2)c2cccs2)cc1Cl (stereo not given),-16%
O=C(O)C1CCCCC1C(=O)Nc1cccc(Cl)c1Cl (stereo not given),-19%
Clc1ccc(-c2ccc(SCc3ccccn3)nn2)cc1,-2%
Cc1sc2ncnc(NCCCO)c2c1C,-11%
CCOc1ccc(C(=S)N2CCOCC2)cc1OC,-25%
Cc1ccc(-n2nc(C)c3c(C)c(CCC(=O)NCc4ccco4)c(C)nc32)cc1,?
Cc1csc(NC(=O)CSc2nnc(CCNC(=O)c3ccc(Cl)c(Cl)c3)n2C)n1,-4%
COCOc1ccc(OC)cc1C(=O)/C=C/c1ccc(OC)c(Br)c1,-14%&-5%
O=C1CC(C(F)(F)C(F)(F)C(F)(F)F)=Nc2ccccc2N1,-2%
O=C(CCc1nc2ccccc2c(=O)[nH]1)OCc1nnc(-c2ccccc2)o1,-25%
CC1(C)N([O-])C(c2ccccc2)=C[N+](=O)C1(C)C,-11%
Cc1nc(C)c(C(=O)C2=C(O)C(=O)N(CCCN(C)C)C2c2ccco2)s1 (stereo not given),-12%

# HPGD inh: entries above that show a hit
molecule,HPGD inh
Cc1[nH]n(-c2ncc(-c3ccc(Cl)cc3)s2)c(=O)c1C(c1ccc(Cl)cc1)C(C#N)C#N (stereo not given),10µM*
COc1cccc(-c2nc(-c3ccccc3)[nH]c(=O)c2C#N)c1,16µM*

# Later entries:
molecule,HPGD inh
CCN1C(=O)C(C)S/C1=N\S(=O)(=O)c1ccc(F)cc1 (stereo not given),-5%
O=c1[nH]c2ccccc2cc1-c1noc(-c2cccnc2)n1,?
CCc1nnc(NC(=O)c2ccc(-c3cccc(C(F)(F)F)c3)o2)s1,?
CSCc1ccc(C(=O)NCc2ccc(C)cc2)cc1,-11%
Cn1cnnc1SCC(=O)Nc1ccc(Br)cc1F,-8%
Cc1ccc(S(=O)(=O)NCc2nc3ccccc3[nH]2)cc1,-3%
COCCOC(=O)C1=C(C)NC2=C(C(=O)CC(C)(C)C2)C1c1cc2c(cc1Br)OCO2 (stereo not given),-26%
COc1cc2c(cc1OC)C1(NCC2)C(=O)Nc2ccccc21 (stereo not given),2%
Nn1c(SCC(=O)Nc2ccc(F)c(F)c2)nnc1C1CCCCC1,-6%
O=C(Nc1cccc(C(F)(F)F)c1)C1(c2ccccc2)CC1,-6%
CCc1cc2c(=O)[nH]c(-c3ccncc3)nc2s1,?
COc1cc(OC)c(NC(=O)Cn2cccc2)cc1Cl,-7%
CCN1CCN(c2nc(Nc3ccc(C)c(C)c3)nc(N)c2[N+](=O)[O-])CC1,-11%
c1ccc(-n2cnnc2SCc2cn3ccccc3n2)cc1,-5%
CCCOc1cccc(OCC(=O)Nc2nc3ccccc3[nH]2)c1,-10%
COc1ccc(NS(=O)(=O)c2ccc(N3C(=O)CCC3=O)cc2)cc1,-1%
Cc1cc2c(s1)c1cnn(Cc3ccccc3F)c(=O)c1n2C,-14%
Cc1ccc(C)c(NC(=O)C2CCCN2/C=C/C(=O)C(F)(F)F)c1 (stereo not given),-3%
Cc1cc(NC(=O)CSc2nc(C(C)C)nc3ccccc23)no1,-19%
O=S(=O)(Cc1ccc(Cl)cc1)NCC1CCCO1 (stereo not given),-7%
Cc1ccc(C)c(NC(=S)NC(NC(=O)/C=C/c2ccccc2)C(Cl)(Cl)Cl)c1 (stereo not given),-9%
CN1CCOCCOCCN(C)C(=O)N2CCOCCOCCN(CCOCC2)C1=O,3%
Cc1ccc(C(=O)Nc2nnc(SCC(=O)N3CCCc4ccccc43)s2)cc1,-24%
COc1ccc(/C=N/NC(=O)C(C)n2cnc3ccccc3c2=O)cc1OC (stereo not given),-8%
O=C(c1cc([N+](=O)[O-])ccc1Cl)N1CCN(c2ccc(F)cc2)CC1,-11%

# Next section
molecule,HPGD inh
FC(F)Oc1ccc(NC(=S)NCc2ccccc2)cc1,-14%
O=C(CSc1nnc(Cc2cc(=O)[nH]c(=O)[nH]2)n1-c1ccc(F)cc1)NC1CCCC1,-9%
CCCC(c1nnnn1C(C)(C)CC)N1CCN(C2CCCC2)CC1 (stereo not given),-5%
Cc1cccc(CNc2ncnc3ccc(-c4ccc(C(=O)N(C)C)cc4)cc23)c1,?
CCOC(=O)C1=C(c2ccccc2)Nc2nc(C)nn2C1c1cccc(OC)c1OC (stereo not given),-13%
CC(C)C[C@H](NC(=O)NCCc1ccc(Cl)cc1)C(=O)O,-7%
CC(C)=C1C2CCC1C1C(=O)N(c3ccc(C)c(C)c3)C(=O)C21 (stereo not given),-13%
O=C(O)c1ccc(-n2nc(C(F)(F)F)c3c2-c2ccoc2CC3)cc1,22µM*
CN1CCN(C(=O)C(C(=O)c2ccc(F)cc2)n2ccccc2=O)CC1 (stereo not given),-6%
CC(C)(C)C(=O)Nc1ccc(N2CCCC2)cc1,4%
O=C(CNC(=O)c1ccccc1Cl)N/N=C/c1ccc([N+](=O)[O-])s1,-9%
O=C(NCCSCc1ccco1)c1ccc(CN2CCOCC2)cc1,1%
Cc1ccc(-c2nnc(SCc3nc4ccccc4[nH]3)n2Cc2ccco2)cc1,-29%
O=C(NCc1ccc(F)cc1)c1ccc(CS(=O)(=O)Cc2ccccc2F)o1,-20%
O=C(NC(Cc1ccccc1)C(=O)OCC(=O)N1CCc2ccccc21)c1ccco1 (stereo not given),-7%
Cc1cc(C2C(C#N)=C(N)OC3=C2C(=O)CCC3)c(C)s1 (stereo not given),-16%
O=C(CSc1n[nH]c(=O)[nH]c1=O)N/N=C/c1ccccc1O,-28%
CC(=NC1CC1)c1c(-c2ccccc2)[nH]n(-c2nc3ccccc3s2)c1=O,-10%
CCCn1c(SCC(=O)c2cc(OC)ccc2OC)nc2c1c(=O)n(C)c(=O)n2C,-8%
Cn1c(Cc2ccc3c(c2)OCO3)nnc1SCC(=O)N1CCc2ccccc2C1,-4%
N#Cc1c(NC(=O)Cn2c(=O)oc3ccccc32)oc(-c2ccccc2)c1-c1ccccc1,?
Cc1sc2nc(CSCC(=O)Nc3c(Cl)cccc3Cl)[nH]c(=O)c2c1C,-14%
Cc1c(Cl)cccc1NC(=O)CSc1nnc(CCNC(=O)OC(C)(C)C)o1,0%

# Only part of the results is shown, so the mix of outcomes need not match the whole.
